HCMV UL50-53 inh – cytomegalovirus nuclear egress complex inhibition. HTRF UL50-UL53 interaction, normalized percent inhibition. inhibition, % (test concentration not listed). 0.15% of 190,000 active. AID 1918969;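 active = both replicates at 50% or more, plus weaker picks with an unusually low signal ratio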;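 note: stock transfer was 100 nL into about 20 µL; 0% = negative control wells and 100% = wells with untagged competitor protein; inactives centre near -12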
GIV-Gai inh – inhibitors of GIV GBA-motif binding to rat Galpha-i3 | P08753 | Galpha-i3/FITC-GIV peptide fluorescence polarization, 90 min; hits give low values; scaled: aluminum fluoride 0%, vehicle 100% | percent of control (FP), % (test concentration not listed) | 0.42% of 210,000 active;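 active = replicate mean at 85% of control or lower, very high polarization wells dropped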;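 note: wells of about 15 µL received 100 nL stock; the first replicate is given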
Target sequence (P08753 whole entry, looked up): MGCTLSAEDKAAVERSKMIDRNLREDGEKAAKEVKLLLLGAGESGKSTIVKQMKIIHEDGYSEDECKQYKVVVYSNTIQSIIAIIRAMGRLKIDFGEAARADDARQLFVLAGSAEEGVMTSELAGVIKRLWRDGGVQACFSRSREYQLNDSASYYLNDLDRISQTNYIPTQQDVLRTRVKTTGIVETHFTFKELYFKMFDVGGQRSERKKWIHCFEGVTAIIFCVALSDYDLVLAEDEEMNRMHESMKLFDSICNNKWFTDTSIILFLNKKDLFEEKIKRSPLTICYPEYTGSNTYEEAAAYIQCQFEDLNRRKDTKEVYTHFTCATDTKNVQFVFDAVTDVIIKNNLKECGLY
Sa growth 42C – inhibitors of Staphylococcus aureus growth at 42 °C. S. aureus RN4220 growth, OD600, 20 h; hits give low values. relative growth, % (concentration not given with the values). 0.53% of 170,000 active. AID 720641;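 active = growth at 42 °C up to 50% and 20 or more points under that at 30 °C, or under 10% at both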;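 note: 300 nL library stock went into each well; scaled to the means of positive and negative controls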
Sa growth 42C second temp – recorded beside Sa growth 42C, whose call it bears; relative growth, %; measured here: growth at 30 °C;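 optical density after 20 h as mean of two plates; 100% = untreated growth and lower means inhibition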
Starred values were filed as active, the others as inactive; . = no result given.

SMILES	HCMV UL50-53 inh	GIV-Gai inh	Sa growth 42C	Sa growth 42C second temp
COc1ccc(OCC(O)Cn2c(NCc3ccco3)nc3c2c(=O)n(C)c(=O)n3C)cc1 (configuration not stated)	-23	100	.	.
Cc1cccc(N2CCN(C(=O)CCC(=O)N3CCOc4ccc(Cl)cc43)CC2C)c1 (configuration not stated)	.	102	105	46
CC1(C)C(=O)N(CC(=O)N2CCc3ccccc3C2)c2ccccc21	-11	97	.	.
C=CCN(C(=O)CSc1nc2[nH]ncc2c(=O)n1-c1ccccc1)c1ccccc1	3	99	94	87
CCOC(=O)c1ccc2c(c1)N(CC)C(=O)c1ccccc1S2	7	103	100	95
CCc1ccc(CNC(=O)CCC(=O)n2ncc3ccccc32)cc1	.	99	78	83
COC(OC)c1[nH]c(=S)ncc1C(=O)O	-18	102	89	82
Cc1c(C(=O)N2CCCC2)oc2c1-c1nn(CC(=O)NCc3cccc(Br)c3)cc1CC2	.	104	106	102
Cc1nc2ccn(Cc3ccco3)c(=O)c2cc1C(=O)N1CCN(c2ccccc2F)CC1	.	95	76	92
CC(=O)Nc1ccc2[nH]c(C)c(C)c2c1	-6	110	113	84
Cc1ccc(S(=O)(=O)NCC(c2ccc(N(C)C)cc2)N2CCOCC2)cc1 (configuration not stated)	.	100	100	92
CCOc1ccc(N2CC(NC(=O)c3ccc4c(c3)OCO4)CC2=O)cc1 (configuration not stated)	.	94	103	81
Cc1c(Cl)cccc1NC(=O)CCS(=O)(=O)c1ccc2c(c1)oc(=O)n2C	.	107	95	80
O=S1(=O)CCN(Cc2ccccn2)CC1	-18	104	.	.
Cn1nc(C(C)(C)C)cc1C(=O)Oc1ccc(C(F)(F)F)cc1	2	106	109	99
CCOC(=O)c1cnn2c1nc(Oc1cc(C(F)(F)F)cc(C(F)(F)F)c1)c1ccccc12	-23	104	119	90
CCc1c(C)sc2c1CCN(C(=O)Nc1cc(OC)ccc1OC)C2c1ccccc1 (configuration not stated)	-14	101	.	.
Cc1ccc(C(=O)c2oc3ccccc3c2NC(=O)c2cc(-c3ccccc3)on2)cc1F	-29	99	101	86
CC(C)(C)OC(=O)NCC12C=CC(O1)C1C(=O)N(Cc3ccccc3)C(=O)C12 (configuration not stated)	-8	97	113	70
CCOC(=O)C1CCN(c2nnc(N3CCCC3=O)s2)CC1	6	106	117	98

Entries of single compounds, quoted from the list. Values in the order: HCMV UL50-53 inh | GIV-Gai inh | Sa growth 42C | Sa growth 42C second temp
COc1ccc(OCC(O)Cn2c(NCc3ccco3)nc3c2c(=O)n(C)c(=O)n3C)cc1 (configuration not stated) in the list: -23 | 100 | . | .
CCOc1ccc(N2CC(NC(=O)c3ccc4c(c3)OCO4)CC2=O)cc1 (configuration not stated) in the list: . | 94 | 103 | 81
CC(C)(C)OC(=O)NCC12C=CC(O1)C1C(=O)N(Cc3ccccc3)C(=O)C12 (configuration not stated) in the list: -8 | 97 | 113 | 70

Remaining list, next part
SMILES	HCMV UL50-53 inh	GIV-Gai inh	Sa growth 42C	Sa growth 42C second temp
COC(=O)C1SCCN1C(=O)c1cc(-c2ccc(Cl)cc2)oc1C (configuration not stated)	-24	102	104	93
Cn1c(=O)c(=O)n(C)c2cc(Oc3ccccc3)c(NS(=O)(=O)c3cccc4nsnc34)cc21	-59	98	.	.
CCCn1c(C(=O)OC)cc2c1ccn2C	-15	98	109	82
C=CCc1ccccc1OCC(O)CN(CC)CC (configuration not stated)	-11	102	107	73
O=C(CN1CCN(c2cccc(Cl)c2)CC1)c1ccc2cc[nH]c2c1	-33	100	.	.
CC1CN(C(=O)C(C)OC(=O)c2ccc3ncsc3c2)CC(C)O1 (configuration not stated)	4	.	89	96
O=C(CCn1c(=O)c2ccccc2n(CC(=O)Nc2ccccc2)c1=O)NCCc1ccccc1	.	104	100	85
Cc1coc2cc3oc(=O)c(CCC(=O)NCCc4ccccc4)c(C)c3cc12	-32	106	88	86
O=c1[nH]c(CN2CCN(CCO)CC2)nc2ccccc12	.	98	98	84
O=C(c1ccccc1)n1ccc(-c2cccs2)n1	-20	94	103	92
Cc1ccc(-c2cc(C(F)(F)F)n3nc(C(=O)NCC45CC6CC(CC(C6)C4)C5)cc3n2)cc1	.	110	91	100
c1ccc(-c2ccc3c(c2)c2c4n3CCN=C4CCC2)cc1	-71	110	-0.2*	-0.1*
O=C1CCC(=O)N1CC(=O)N1CCCc2ccccc21	-6	112	106	99
O=C(/C=C/c1ccc2ccccc2n1)N1CCN(S(=O)(=O)c2ccc3c(c2)OCCCO3)CC1	-6	.	87	94
COc1ccccc1Cn1c(=S)[nH]c2cc(C(=O)NCCN3CCOCC3)ccc2c1=O	.	103	105	83
COC(=O)/N=C/c1c(NCc2ccccc2)nc2c(C)cccn2c1=O	-32	.	100	93
Cc1ccc(C)n1-c1ccsc1C(=O)CC#N	-15	97	.	.
O=C(NC1CCCCC1)C1CC(c2ccccc2F)=NO1 (configuration not stated)	.	103	106	104
CCc1ccc(OCCSc2nc3ccccc3n2CCC(=O)O)cc1	8	106	.	.
COC(=O)c1ccc(S(=O)(=O)NCCNc2ncc(Cl)cc2C(F)(F)F)n1C	-16	108	98	91

By substructure: the entries above containing an aryl thioether with sulfur outside any ring.
SMILES	HCMV UL50-53 inh	GIV-Gai inh	Sa growth 42C	Sa growth 42C second temp
C=CCN(C(=O)CSc1nc2[nH]ncc2c(=O)n1-c1ccccc1)c1ccccc1	3	99	94	87
CCc1ccc(OCCSc2nc3ccccc3n2CCC(=O)O)cc1	8	106	.	.

More entries:
SMILES	HCMV UL50-53 inh	GIV-Gai inh	Sa growth 42C	Sa growth 42C second temp
Cc1cc(C(=O)CSc2ccc(S(=O)(=O)N(C)C)cn2)c(C)n1CCc1cccs1	2	.	105	104
CCOc1ccc(C(=O)NCC(=O)NC2CCN(Cc3ccccc3)CC2)cc1	-25	.	87	97
Cc1ccc(C)c(C(=O)Cn2nc3n(CC(C)C)c(=O)c4ccccc4n3c2=O)c1	5	105	.	.
Cc1ccc(Nc2nc3nonc3nc2NCCc2ccccc2)cc1C	-26	102	.	.
CCC(C)CNC(=O)c1ccc(OC)c(OC)c1 (configuration not stated)	27	.	93	98
CN(C)S(=O)(=O)c1ccc(C(=O)Nc2c3c(nn2C(C)(C)C)CS(=O)C3)cc1 (configuration not stated)	.	103	117	90
Cc1ccc(C(=O)NCCc2csc(-c3cccc(F)c3)n2)cc1C	.	105	80	72
O=C(c1ccno1)c1cc(F)ccc1O	-23	.	118	84
O=C(COC(=O)C12CC3CC(CC(Cl)(C3)C1)C2)c1ccccc1	-14	.	88	83
CCN1C(=Nc2ccc(Cl)cc2)SC/C1=C\C(=O)OC	-11	.	79	89
CCS(=O)(=O)N1CCCC1c1ccc(Cl)cc1 (configuration not stated)	-33	101	.	.
O=C(O)CCc1ccc(-c2ccccc2)n1CCC(=O)O	.	100	103	80
CCCn1c(=O)c2ccccc2n2c(=O)n(CC(=O)Nc3ccc(C)c(C)c3)nc12	8	110	.	.
CCOc1ccc(CNC(=O)c2ccc(CSc3nc4ccncc4n3Cc3ccc(F)cc3)cc2)cc1	-23	100	119	100
COc1cc(CNCc2ccco2)cc(Cl)c1OC	-19	102	92	90
CCc1cc2c(C)cc(=O)oc2c2c1OCC2=O	9	111	101	90
CC1CC(C)CN(c2ncnc3c2cnn3C)C1 (configuration not stated)	-28	109	96	81
COc1ccc(C2OC(=O)CC2C(=O)N2CCN(c3cc(Cl)ccc3C)CC2)cc1OC (configuration not stated)	-2	101	99	77
O=C(C(F)F)N(Cc1ccccc1)Cc1ccccc1	-43	107	84	85
CN(Cc1cccs1)C(=S)SCCO	-7	.	92	81
Cc1ccc(CC(=O)NC(C)C2CCCO2)cc1 (configuration not stated)	-34	99	116	100
Cc1cc(=O)[nH]c(SCc2nc3ccccc3[nH]2)n1	.	99	108	100
C[N+](C)(C)C/C=C1/COCO1	-14	109	88	86
Cc1c(C)c(C)c(CC#N)c(C)c1C	0	97	83	95
Cc1cc(NC(=O)CSc2nc3c(c(=O)n2-c2ccc(F)cc2)SC(C)C3)no1 (configuration not stated)	10	109	100	102
c1ccc(C2NCCn3cccc32)cc1 (configuration not stated)	-16	107	97	105
O=C(O)c1cc(NS(=O)(=O)c2ccccc2)ccc1N1CCN(c2cccc(Cl)c2)CC1	-19	102	.	.
CCOCCCn1c(CC(N)=O)n[nH]c1=S	-9	.	100	86
CCOC(=O)C1=C(N)OC2=C(C(=O)CC(C)(C)C2)C1c1ccc(OCc2ccccc2)cc1 (configuration not stated)	10	101	.	.
CC(C)OC(=O)Cn1c(C2CC2)nc2ccccc2c1=O	8	105	78	87
O=C(c1ccc(Cn2c(=O)[nH]c3ccccc3c2=O)cc1)N1CCN(c2ccccc2)CC1	.	109	106	88
CC(C)C(=O)Nc1nc2cc(NC(=O)C3CCN(S(=O)(=O)N4CCOCC4)CC3)ccc2s1	-20	102	.	.
CC1CC(C)(C)CC1(C#N)Nc1ccc(CC#N)cc1 (configuration not stated)	-16	99	89	71
CCOc1ccc2c(c1)c(C(=O)N1CCOCC1)c(C)n2-c1ccc(OC)cc1	-8	99	.	.
O=C1C=CC(=O)N1CC1CCCO1 (configuration not stated)	-9	.	103	95
COC(=O)c1sc2cc(-c3ccc(F)cc3)sc2c1C	-32	102	83	91
Cc1cc2oc(C(=O)Nc3ccc(S(=O)(=O)N(C)c4ccccc4)cc3)cc(=O)c2cc1C	-20	100	99	87
O=C1NNC(c2ccccc2)=N/C1=C\c1ccc(Cl)cc1	-15	99	101	92
N#Cc1c2n(c(=O)n(-c3ccc(Cl)cc3)c1=N)CCC2	-11	.	88	95
Cc1ccc(Cn2ccsc2=NC(=O)COC(=O)c2ccc3c(=O)n4c(nc3c2)CCC4)cc1	-9	.	92	69
CCOc1ccccc1-n1cc2c(c1-c1ccc(OC)cc1)c(=O)n(C)c(=O)n2C	-6	96	112	90
C=CCn1c(=N)n(CC(=O)c2ccc(OC)cc2)c2ccccc21	.	103	107	77
COc1ccccc1NC(=O)NC(N)=O	-21	104	87	84
COc1ccc(OC)c(NC(=O)CSc2cn(CC(=O)N3CCCCCC3)c3ccccc23)c1	.	104	123	98
O=C1C2C3C=CC(O3)C2C(=O)N1c1ccc(Br)cc1[N+](=O)[O-] (configuration not stated)	-78	96	.	.
CC(C)c1ccc(S(=O)(=O)c2cnc(SCC(=O)Nc3cccc(C(F)(F)F)c3)nc2N)cc1	.	106	101	96
CCCc1nnc(C(=O)Nc2cccc(C(=O)NCCc3c[nH]c4ccc(C)cc34)c2)s1	-16	105	.	.
O=C1COc2ccc(S(=O)(=O)N3CCCC(C(=O)N4CCc5ccccc5C4)C3)cc2N1 (configuration not stated)	-18	110	.	.
Cc1cccc(N2CCN(C(=O)c3cccn3-c3nnc(N4CCCCC4)s3)CC2)c1C	.	99	72	56
CC(=O)c1ccc(NC(=O)CSc2nnc(-c3ccncc3)n2-c2ccccc2)cc1	.	102	115	92
CCOC(=O)c1noc2nc(C)nc(NCCCN3CCN(c4cc(Cl)ccc4C)CC3)c12	-21	99	.	.
O=c1nc(-c2ccc(Cl)cc2)oc2ccccc12	-16	.	114	65
O=C(CN1CCc2ccccc21)Nc1scc2c1c(=O)oc1ccccc12	-24	98	94	75
CSc1nc2cc(F)c(F)cc2n1C	-10	104	101	63
N#Cc1c(N)oc(-c2ccc3c(c2)OCO3)c1-c1ccc2c(c1)OCO2	-55	-54*	91	58
Cc1cc(C)cc(S(=O)(=O)c2cn(C)c3cc(N4CCCC4)c(F)cc3c2=O)c1	.	109	118	94
O=C(O)c1ccc(CSc2nc3cccnc3n2Cc2cccc(F)c2)cc1	-43	94	105	96
CCN(c1ccccc1)S(=O)(=O)c1ccc2c(c1)CCN2C(=O)CCC(=O)N1CCCC1	-16	104	.	.
CCN(CC)S(=O)(=O)c1ccc(-c2nc(C#N)c(N(C)C)o2)cc1	-30	103	.	.
Cc1ccc(NC(=O)c2[nH]c3c(c2C)C(=O)CC(c2ccc(C(C)(C)C)cc2)C3)cc1C (configuration not stated)	.	99	80	80

6 entries out of the list above, sorted by the number in Sa growth 42C, descending:
structure	GIV-Gai inh	Sa growth 42C	Sa growth 42C second temp
CCOC(=O)C1CCN(c2nnc(N3CCCC3=O)s2)CC1	106	117	98
CC(=O)Nc1ccc2[nH]c(C)c(C)c2c1	110	113	84
CSc1nc2cc(F)c(F)cc2n1C	104	101	63
CCOCCCn1c(CC(N)=O)n[nH]c1=S	.	100	86
Cc1cc2oc(C(=O)Nc3ccc(S(=O)(=O)N(C)c4ccccc4)cc3)cc(=O)c2cc1C	100	99	87
C=CCN(C(=O)CSc1nc2[nH]ncc2c(=O)n1-c1ccccc1)c1ccccc1	99	94	87

Next part:
SMILES	HCMV UL50-53 inh	GIV-Gai inh	Sa growth 42C	Sa growth 42C second temp
COc1ccc(-c2nc3ccc(C(=O)NC4CC4)cc3nc2-c2ccc(OC)cc2)cc1	-6	102	109	87
C=CCn1c(=O)c2ccccc2n2c(SCC(=O)Nc3sc(C)c(CC)c3C(=O)OCC)nnc12	-10	.	101	97
Cc1noc2ncnc(N3CCN(c4cccc(C(F)(F)F)c4)CC3)c12	.	97	82	92
CC1CCc2nc(NC(=O)Nc3cccnc3)sc2C1 (configuration not stated)	-16	.	116	91
COc1ccc2[nH]c3c(c2c1)CCn1c-3nc2sc3c(c2c1=O)CCCCC3	-18	102	.	.
CCOc1ccc2nc(NCCNC(=S)NC)c(C#N)cc2c1	-68	101	91	86
COc1ccc(C(=O)Cn2c(C(F)(F)F)nc3ccccc32)cc1	-10	.	115	86
CSc1ccc(-c2nc(CSCC(=O)N3CCCC3)c(C)o2)cc1	.	99	96	86
N#Cc1c(Sc2ccccc2)ncc2cc3ccccc3nc12	-20	79*	101	84
O=C(COc1ncnc2sccc12)NC(=O)NCc1ccco1	-52	.	76	90

Compound activity (PubChem BioAssay)
